High-throughput results: PubChem BioAssay, Sanford-Burnham Center for Chemical Genomics
Gli-Sufu antag: Gli-Sufu pathway antagonists, primary screen, luciferase luminescence, Sufu-KO-LIGHT cells, uHTS; 340,000 compounds, 0.74% hits; inhibition, % at 5 µM; Sufu-KO-LIGHT fibroblasts, Gli luciferase reporter luminescence;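 active = inhibition above about 55%, limit read from the data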;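 also: 0% = DMSO-treated cells and 100% = wells with medium but no cells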
Jurkat NFkB inh: inhibitors of induced NF-kB luciferase reporter, primary screen, TCR NF-kB activation inhibitor project, cell-based, luminescence, uHTS; Jurkat, PMA/ionomycin-induced NF-kB luciferase reporter; AID 435003, 2010; inhibition, % at 4 µM; 330,000 compounds, 0.53% hits; in the data active = inhibition above about 50%
697 NFkB inh: inhibitors of PMA/ionomycin-induced NF-kB reporter, 697 cells, primary screen, B-cell NF-kB inhibitor project, cell-based, luminescence, uHTS. inhibition, % at 4 µM. 697 B-cell NF-kB luciferase reporter, 16 h. 330,000 compounds, 0.33% hits; in the data active = inhibition above about 35%
UBC13 polyUb: UBC13 polyubiquitin chain formation inhibitors, primary screen, biochemical, TR-FRET, uHTS. Ubiquitin-conjugating enzyme E2 N (Homo sapiens), P61088. inhibition, % at 20 µM. 330,000 compounds, 0.47% hits. AID 485273, 2010; in the data active = inhibition above about 45%, passing the limit was not always enough
Target sequence (P61088 whole entry, looked up): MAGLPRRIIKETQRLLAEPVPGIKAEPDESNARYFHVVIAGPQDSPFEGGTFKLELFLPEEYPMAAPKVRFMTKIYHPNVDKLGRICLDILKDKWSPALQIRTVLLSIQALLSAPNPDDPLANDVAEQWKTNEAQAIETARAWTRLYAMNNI
HKDC1 inhibitor: HKDC1 hexokinase inhibitors, primary screen, biochemical, fluorescence, uHTS; inhibition, % at 20 µM; recombinant HKDC1, G6PDH/diaphorase resazurin coupled fluorescence; 340,000 compounds, 0.16% hits; Q2TB90;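 active = inhibition above about 35% when tested at 20 µM, limit read from the data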;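 also: plate controls were DMSO wells with enzyme for no effect and DMSO wells lacking enzyme for full effect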
Target sequence (Q2TB90 whole entry, looked up): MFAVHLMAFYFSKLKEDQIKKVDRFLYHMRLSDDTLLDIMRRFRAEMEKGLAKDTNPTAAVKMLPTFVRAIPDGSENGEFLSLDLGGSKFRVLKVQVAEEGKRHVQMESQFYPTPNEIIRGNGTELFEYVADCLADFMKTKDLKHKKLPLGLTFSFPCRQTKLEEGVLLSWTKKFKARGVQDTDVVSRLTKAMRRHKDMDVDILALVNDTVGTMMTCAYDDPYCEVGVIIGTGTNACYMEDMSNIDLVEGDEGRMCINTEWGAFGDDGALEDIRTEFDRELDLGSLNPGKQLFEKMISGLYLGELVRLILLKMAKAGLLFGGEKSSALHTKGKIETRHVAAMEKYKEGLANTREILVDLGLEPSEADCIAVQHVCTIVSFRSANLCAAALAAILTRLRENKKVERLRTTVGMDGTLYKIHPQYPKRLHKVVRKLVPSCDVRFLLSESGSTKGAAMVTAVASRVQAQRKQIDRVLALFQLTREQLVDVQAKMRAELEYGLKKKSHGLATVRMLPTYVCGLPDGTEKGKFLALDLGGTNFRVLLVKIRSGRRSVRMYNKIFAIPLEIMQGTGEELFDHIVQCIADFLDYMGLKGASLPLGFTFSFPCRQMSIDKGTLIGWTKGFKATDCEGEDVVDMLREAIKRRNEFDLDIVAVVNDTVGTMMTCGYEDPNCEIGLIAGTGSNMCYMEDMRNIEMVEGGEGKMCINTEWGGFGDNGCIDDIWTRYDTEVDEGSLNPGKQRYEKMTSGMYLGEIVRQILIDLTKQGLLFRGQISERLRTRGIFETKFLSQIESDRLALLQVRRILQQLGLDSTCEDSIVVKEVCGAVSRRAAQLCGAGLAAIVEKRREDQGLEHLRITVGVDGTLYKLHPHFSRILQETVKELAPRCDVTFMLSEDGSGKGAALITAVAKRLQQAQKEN
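Test system: recombinant HKDC1 (HK5) hexokinase enzyme, produced in-house; Amount: enzyme 5 µg/mL final; Buffer or medium: Tris pH 8.0 buffer with MgCl2, Tween-20, BSA, BME; Reagent: glucose and ATP substrates; Doses: 20 µM test compound, 1% DMSO; Incubation: 90 min reaction incubation at room temperature, dark; Detection: resorufin fluorescence at 613 nm.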
Apaf-1 inh: inhibitors of human Apaf-1 apoptosome, primary screen, biochemical, DEVD-Rh110 fluorescence, uHTS | reconstituted apoptosome caspase-3 activity | 330,000 compounds, 0.71% hits | inhibition, % at 20 µM | Apoptotic protease-activating factor 1 (Homo sapiens), O14727 | AID 489030, 2010; active = inhibition of at least 40% at 20 µM;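 also: plate controls were DMSO wells for no effect and DEVD-CHO caspase inhibitor wells for full effect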
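Material: biochemical Apaf-1 apoptosome reconstitution. Medium: Hepes buffer, pH 7.5. Also added: cytochrome c activation, bis-DEVD rhodamine 110 substrate. Timing: 30 min compound preincubation, 50 min activation, room temperature. Measured by: rhodamine 110 fluorescence at Ex 480/Em 540 nm.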
* marks the source's active call; other numbers are inactive results; i = inactive; . = not tested or not shown.

SMILES	Gli-Sufu antag	Jurkat NFkB inh	697 NFkB inh	UBC13 polyUb	HKDC1 inhibitor	Apaf-1 inh
Cc1[nH]c2ccccc2c1C(=O)C(=O)N1CCN(C)CC1	-4	-6	29	-15	-4	-17
COc1ccc(C2NC(c3ccc(OC)cc3OC)C(C)C(=O)C2C)c(OC)c1 (stereo not drawn)	1	0	15	0	-5	-1
CN(C)CCNC(=O)CCCNC(=O)Cn1cnc2sc3c(c2c1=O)CCCC3	-2	8	5	5	-1	7
CCC(=O)Nc1cccc(NC(=O)COc2ccc(OC)cc2)c1	-3	-6	-33	-11	-10	10
Cc1cc(N/N=C/c2ccccc2[N+](=O)[O-])nc(-n2nc(C)cc2C)n1	-8	6	-19	-15	-9	7
Cc1ccc(-n2cc(C(=O)c3ccc(F)cc3)nn2)cc1Cl	9	-179	-247	19	-4	-7
CCCn1c(C)cc(C(=O)COc2ccc(S(=O)(=O)N(CC)CC)cc2[N+](=O)[O-])c1C	13	17	-11	-4	-9	4
CN(C)c1oc(/C=C/c2ccccc2)nc1C#N	-49	-72	-92	21	-2	10
Cc1ccc2nc(NCc3ccccc3)c(C=O)c(=O)n2c1	-11	1	-24	-4	-8	-9
CS(=O)(=O)c1ccc(C(=O)OCC(=O)NC(=O)Cc2ccccc2)cc1	1	4	20	8	35	7
Cc1ccc(NC(=O)c2ccc(N/N=C/c3cccc(O)c3)c([N+](=O)[O-])c2)cc1	7	0	-7	-73	-2	-5
CC1(C)NC(=O)N(CNc2cc(Cl)ccc2Cl)C1=O	-3	-12	-12	20	-1	8
O=C(NNS(=O)(=O)c1ccccc1)c1ccccc1-n1cccc1	7	-6	1	1	-6	-1
Cc1ccc(OCC(=O)Nc2ccccc2F)cc1	-1	-101	13	-2	0	-7
CN(C1CCCCC1)S(=O)(=O)c1cccc(C(=O)Nc2ccccn2)c1	5	-3	-22	-2	3	4
COc1ccccc1-n1ccnc(SCC(=O)NCCc2ccccc2)c1=O	-4	5	-17	2	-2	9
CC(=O)c1ccc(NC(=O)Cn2cnc(S(=O)(=O)N3CCC(C)CC3)c2)cc1	-11	3	15	2	0	-7
CCN1C(=O)c2ccc(C(=O)Nc3ccc4c(c3)OCO4)cc2C1=O	-17	2	20	3	-5	8
C=CCn1c(CCNC(=O)c2ccccc2F)nnc1SCC(=O)Nc1ccccc1F	4	1	9	2	-5	0
COc1ccccc1C1/C(=C(/O)c2ccccc2)C(=O)C(=O)N1CC(C)O (stereo not drawn)	8	-1	9	0	5	9
O=C(CSc1nnc(-c2ccco2)n1-c1ccccc1Cl)Nc1cccc(C(=O)O)c1	-12	-5	15	0	0	-8
CC(=O)Nc1ccc(NC(=O)CSc2ncc(C(=O)Nc3ccccc3)c(=O)n2C)cc1	-3	12	9	69*	-3	7
O=C(COc1ccc(-c2ccccc2)cc1)N1CCCC1	-25	-38	-18	5	-9	10
COc1ccc(-c2nc(-c3cccc(C)c3)no2)cc1OC	-72	-92	-86	12	3	5
COc1cc(OC)cc(-c2cc3cc(F)ccc3cn2)c1	-61	-77	-85	14	7	19

Later entries.
SMILES	Gli-Sufu antag	Jurkat NFkB inh	697 NFkB inh	UBC13 polyUb	HKDC1 inhibitor	Apaf-1 inh
CCOc1ccc2nc(C(=O)N3CCCC(C)C3)sc2c1 (stereo not drawn)	-60	-115	-170	8	-6	5
CC(C)(C)c1csc(NC(=O)C2=COCCO2)n1	-67	-113	-124	-1	1	31
COc1cc(/C=N/NC(=O)c2sc3ccccc3c2Cl)ccc1OC(=O)c1ccc([N+](=O)[O-])cc1	-10	-11	9	-8	-4	8
CC(C)(C)c1ccc(CNC(=O)c2ccc3c(c2)NC(=O)CO3)cc1	5	6	-3	12	1	-4
COc1cc(O)oc1C=Nc1ccccc1	1	0	-3	0	7	2
Cc1cc(C)c(C(N)=O)c(Nc2cccc(Cl)c2C)n1	-7	11	15	9	-7	-19
NNC(=O)c1ccc(CSc2nc3ccccc3s2)cc1	-23	-53	-19	4	1	13
CCn1c(COc2ccc(C)cc2)nnc1SCC(=O)NNC(=O)c1ccc(OC)cc1	0	13	18	8	-9	4
COc1cc2c(cc1OC)-c1cc(N3CCCc4ccccc43)nc(=O)n1CC2	0	-2	19	6	-13	2
COc1cc(OC)c(C(=O)Nc2ccncc2)cc1OC	-5	-26	-45	-4	2	3
Cc1ccc(OCCCC(=O)Nc2ccc(S(N)(=O)=O)cc2)cc1	-1	-3	8	6	-7	-1
N#CC(c1ccccc1F)(c1ncc(C(F)(F)F)cc1Cl)N1CCOCC1 (stereo not drawn)	48	-16	-7	-5	9	0
CCc1ccc(Nc2nc(C)cc(C)c2C(N)=O)cc1	-6	-6	-6	-2	-7	-2
CC(C)NC(=O)NC(=O)COC(=O)Cc1c(F)cccc1Cl	5	-9	12	2	-6	3
COc1ccc(Cl)c2sc(NC(=O)C3=COCCO3)nc12	-14	-5	-11	-9	-6	-8
COc1ccc(/C(C)=N/NC(=O)c2ccc(NS(=O)(=O)c3cccs3)cc2)cc1	0	0	-5	-10	-1	-3
COc1cc(/C=C/C(=O)O)cc(S(=O)(=O)NNC(=O)c2cc(C)oc2C)c1OC	6	1	7	-7	-2	-7
COc1ccc(C)cc1NC(=O)Nc1ccc(C(=O)N2CCCC2)cc1	-23	3	7	3	-3	11
CCCCc1ccc(Nc2ncccc2C#N)cc1	6	-92	-46	2	2	28
CCOC(=O)[C@@H](C)N(Cc1ccc(OC)cc1)S(=O)(=O)N(Cc1ccccc1)[C@H](C(=O)OC)C(C)C	25	10	14	13	5	10
COC(=O)COc1ccc(C)cc1-n1nc2ccccc2n1	-19	-10	5	-7	-2	-19
N#Cc1ccccc1COC(=O)c1ccc(Br)o1	-4	-1	1	-2	-2	10
CCOC(=O)c1ccc(-n2cccc2/C=C2\NC(=O)NC2=O)cc1	-8	43	-10	-2	4	8
CCOC(=O)N1CCN(C(=O)c2ccc(CNS(=O)(=O)c3ccc(C)cc3)cc2)CC1	5	-3	-8	0	-6	0
O=C(Nc1ccc(S(=O)(=O)Nc2ccccn2)cc1)c1cccc(Br)c1	-7	7	14	3	0	5

The list goes on.
SMILES	Gli-Sufu antag	Jurkat NFkB inh	697 NFkB inh	UBC13 polyUb	HKDC1 inhibitor	Apaf-1 inh
O=C(Nc1ccccc1C(=O)O)c1cc(S(=O)(=O)N2CCOCC2)c(Br)s1	-15	8	20	11	-3	9
CC(O)CNCCCOc1ccc(Cl)cc1C(C)(C)C (stereo not drawn)	1	3	1	13	-8	-4
O=[N+]([O-])c1cccc(-c2nc(-c3ccccc3)no2)c1	-79	-105	-117	-1	-8	2
Cc1cccc(-n2c(SCC(N)=O)nnc2-c2ccccn2)c1C	-7	-4	-1	-3	-6	-3
CN1C(=O)/C(=C/c2ccc(OCc3ccc(C(=O)O)cc3)c(Cl)c2)NC1=S	18	7	-9	8	10	-9
COc1ccccc1-n1c(-c2cc(-c3ccc(F)cc3)n[nH]2)n[nH]c1=S	1	19	17	6	-8	4
Cc1[nH]c2ccccc2c1C(=O)C(=O)N1CCOCC1	6	7	-2	-5	-5	4
CC(C)NC(=S)NC(=O)c1ccc(-c2ccccc2)cc1	1	-12	-14	4	-2	11
COc1ccc(-c2ccc(NS(=O)(=O)c3cc([N+](=O)[O-])ccc3C)cc2)nn1	-8	1	13	-2	-2	-5
CC(=O)N/C(=C\c1ccccc1)C(=O)OC(C)C(=O)Nc1ccccc1F (stereo not drawn)	2	-6	4	3	-4	6
COc1cc(/C=C2/NC(=O)N(c3cccc(Cl)c3)C2=O)ccc1O	75*	30	14	-15	-1	14
O=C(NNS(=O)(=O)c1ccc(Br)cc1)c1ccccc1-n1cccc1	-12	7	-2	-16	-4	8
Cc1nc2n[nH]c(N)c2c2c1CCCC2	-5	3	25	2	-1	-17
O=C(Nc1ccccc1)N1C(=O)C2(OCCO2)c2ccccc21	-10	16	15	2	-4	-6
COc1ccc(NC(=O)NC(=O)c2ccccc2)cc1	-81	-92	-114	-4	-3	-6
COC(=O)[C@@H](CC(C)C)NS(=O)(=O)N(Cc1ccccc1)[C@@H](CC(C)C)C(=O)OC	7	-2	1	10	5	17
COc1ccc(-c2nc(-c3ccncc3)no2)c(OC)c1	-52	-201	-380	-9	-5	5
O=C(Oc1ccc2ccccc2c1Br)N1CCCCCC1	-69	-308	i	-3	3	16
O=C(Nc1ccc(Br)cc1)c1cc(S(=O)(=O)Nc2ccccn2)ccc1Cl	-39	4	11	0	2	0
CC(SCc1ccccc1)C(=O)N/N=C/c1cc2c(cc1Br)OCO2 (stereo not drawn)	2	-4	-35	-8	25	18
Cc1cccc(-c2noc(-c3ccoc3C)n2)c1	.	-82	-156	-5	-4	8
Cc1cccc(NC(=O)c2cc3ccccc3c(=O)o2)n1	-53	-125	-114	9	-3	-17

Ordered by number of heavy atoms (largest number first): some entries from above.
SMILES	Gli-Sufu antag	Jurkat NFkB inh	697 NFkB inh	UBC13 polyUb	HKDC1 inhibitor	Apaf-1 inh
CN(C)CCNC(=O)CCCNC(=O)Cn1cnc2sc3c(c2c1=O)CCCC3	-2	8	5	5	-1	7
COc1ccccc1-n1ccnc(SCC(=O)NCCc2ccccc2)c1=O	-4	5	-17	2	-2	9
Cc1[nH]c2ccccc2c1C(=O)C(=O)N1CCN(C)CC1	-4	-6	29	-15	-4	-17

Nothing new here: entries from further up.
SMILES	Gli-Sufu antag	Jurkat NFkB inh	697 NFkB inh	UBC13 polyUb	HKDC1 inhibitor	Apaf-1 inh
CN(C)CCNC(=O)CCCNC(=O)Cn1cnc2sc3c(c2c1=O)CCCC3	-2	8	5	5	-1	7
CCC(=O)Nc1cccc(NC(=O)COc2ccc(OC)cc2)c1	-3	-6	-33	-11	-10	10
Cc1cc(N/N=C/c2ccccc2[N+](=O)[O-])nc(-n2nc(C)cc2C)n1	-8	6	-19	-15	-9	7
Cc1ccc(-n2cc(C(=O)c3ccc(F)cc3)nn2)cc1Cl	9	-179	-247	19	-4	-7
CCCn1c(C)cc(C(=O)COc2ccc(S(=O)(=O)N(CC)CC)cc2[N+](=O)[O-])c1C	13	17	-11	-4	-9	4
CN(C)c1oc(/C=C/c2ccccc2)nc1C#N	-49	-72	-92	21	-2	10
Cc1ccc2nc(NCc3ccccc3)c(C=O)c(=O)n2c1	-11	1	-24	-4	-8	-9
CS(=O)(=O)c1ccc(C(=O)OCC(=O)NC(=O)Cc2ccccc2)cc1	1	4	20	8	35	7
Cc1ccc(NC(=O)c2ccc(N/N=C/c3cccc(O)c3)c([N+](=O)[O-])c2)cc1	7	0	-7	-73	-2	-5
CC1(C)NC(=O)N(CNc2cc(Cl)ccc2Cl)C1=O	-3	-12	-12	20	-1	8
O=C(NNS(=O)(=O)c1ccccc1)c1ccccc1-n1cccc1	7	-6	1	1	-6	-1
Cc1ccc(OCC(=O)Nc2ccccc2F)cc1	-1	-101	13	-2	0	-7
CN(C1CCCCC1)S(=O)(=O)c1cccc(C(=O)Nc2ccccn2)c1	5	-3	-22	-2	3	4
COc1ccccc1-n1ccnc(SCC(=O)NCCc2ccccc2)c1=O	-4	5	-17	2	-2	9
CC(=O)c1ccc(NC(=O)Cn2cnc(S(=O)(=O)N3CCC(C)CC3)c2)cc1	-11	3	15	2	0	-7
CCN1C(=O)c2ccc(C(=O)Nc3ccc4c(c3)OCO4)cc2C1=O	-17	2	20	3	-5	8
C=CCn1c(CCNC(=O)c2ccccc2F)nnc1SCC(=O)Nc1ccccc1F	4	1	9	2	-5	0
COc1ccccc1C1/C(=C(/O)c2ccccc2)C(=O)C(=O)N1CC(C)O (stereo not drawn)	8	-1	9	0	5	9
O=C(CSc1nnc(-c2ccco2)n1-c1ccccc1Cl)Nc1cccc(C(=O)O)c1	-12	-5	15	0	0	-8

Not all compounds are listed, so the mix of outcomes need not match the whole.
